2A StopGo – High Throughput Screening for Foot and Mouth Disease Virus Antivirals | human cells with a luciferase reporter of 2A StopGo recoding; control for the full effect not named in the record | AID 1159524, 2015 | Potency, µM (top dose mostly 57.9 µM), for the others: at the top dose signal change, negative = less light | hit rate 1.2% among 410,000; active = well fitted falling curve with a large enough effect; inconclusive = small, poorly fitted or top-dose-only effect; inactive = no such curve, though single readings can be large or run the other way; tested in HEK293T cells; also: % is scaled to controls: 0 for no effect and ±100 for the full control effect; nearly all actives have a fitted effect of over 45% in size; luciferase light after 4 h
NS1 function inh – qHTS Assay for Inhibitors of Influenza NS1 Protein Function | S. cerevisiae slowed by influenza A NS1, growth recovery by OD600 | Potency, µM (doses to about 46.1 µM), without a hit: top-dose activity, positive = more growth | hit rate 0.4% among 270,000; active means well fitted rising curve with a large enough effect; inconclusive means small, poorly fitted or top-dose-only effect; inactive means no such curve, though single readings can be large or run the other way; also: nearly all actives have a fitted effect of over 50% in size
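Growth recovery, yeast-based: influenza A NS1 expressed in S. cerevisiae causes slow growth, and suppressors are detected by OD600. The parent strain without NS1 is used as positive control.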
Cruzain inh noDet – qHTS Assay for Promiscuous and Specific Inhibitors of Cruzain (without detergent); purified cruzain, Z-FR-AMC fluorescence, no detergent; hit rate 2.3% among 200,000; Potency, µM, without a hit: max response, negative = inhibition, usual class: inhibitors;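 also: plate controls were enzyme without inhibitor for no effect and buffer without enzyme for full effect; nearly all actives have a fitted effect of over 40% in size; top concentration of the series not given in the record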
Target sequence (P25779 123-467 limits assumed): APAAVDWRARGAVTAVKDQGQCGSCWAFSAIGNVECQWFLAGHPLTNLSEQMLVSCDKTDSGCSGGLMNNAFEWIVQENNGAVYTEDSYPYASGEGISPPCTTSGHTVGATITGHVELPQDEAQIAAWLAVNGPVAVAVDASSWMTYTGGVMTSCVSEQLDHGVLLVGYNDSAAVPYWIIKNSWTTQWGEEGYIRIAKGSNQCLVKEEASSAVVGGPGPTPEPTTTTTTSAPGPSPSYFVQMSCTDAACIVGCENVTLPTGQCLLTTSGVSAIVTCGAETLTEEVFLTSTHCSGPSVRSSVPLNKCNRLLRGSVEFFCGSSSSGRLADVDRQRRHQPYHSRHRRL
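Detergent-free condition (0.00005% Triton X-100) in acetate buffer pH 5.5 with DTT. 1.5 nM enzyme and compound were pre-mixed 15 min, then 2 uM Z-FR-AMC substrate added; reaction progress from fluorescence change between first and third reads (60 s).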
RE007 growth inh – qHTS Assay for Inhibitors of the HIV-1 protein Vpr | AID 651644, 2012 | S. pombe RE007 Vpr strain, BacTiter-Glo ATP luminescence, 24 h; control for the full effect not named in the record | Potency, µM (top dose mostly 92.2 µM), inactives show top-dose activity change, negative = less growth | hit rate 0.21% among 360,000; active = well fitted falling curve with a large enough effect; inconclusive = small, poorly fitted or top-dose-only effect; inactive = no such curve, though single readings can be large or run the other way;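 also: % is scaled to controls: 0 for no effect and ±100 for the full control effect; nearly all actives have a fitted effect of over 50% in size; the assay follows cell death caused by Vpr and the record does not say whether a fall means rescue or toxicity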
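Fission yeast strain RE007, carrying one chromosomally integrated HIV-1 vpr copy, was seeded at OD 0.01 in PMG+AL medium with 23 nL pinned compound. After 24 h at 30 °C and 99% humidity, viability was read by BacTiter-Glo luminescence.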
Cruzain inh Det – qHTS Assay for Promiscuous and Specific Inhibitors of Cruzain (with detergent); Cruzipain (Trypanosoma cruzi), P25779; purified cruzain, Z-FR-AMC fluorescence, 0.01% Triton; Potency, µM, for inactives: max response, negative = inhibition, hits mostly inhibitors; hit rate 0.43% among 200,000;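 also: plate controls were neutral wells for no effect and buffer without enzyme for full effect; nearly all actives have a fitted effect of over 40% in size; top concentration of the series not given in the record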
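Purified cruzain (1.5 nM final) was preincubated with compounds for 15 min at room temperature in 100 mM sodium acetate pH 5.5, 5 mM DTT, 0.01% Triton X-100. Reaction started with 2 uM Z-FR-AMC; AMC fluorescence change over 60 s gave activity.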
Lassa entry inh – qHTS for Inhibitors of binding or entry into cells for Lassa Virus; Lassa virus pseudotype entry inhibition, cell reporter; control for the full effect not named in the record; Potency, µM (series often up to 37.9 µM), without a hit: at the top dose activity change, negative = inhibition, usual class: inhibitors; hit rate 1.2% among 300,000; active means well fitted inhibition curve with a large enough effect; inconclusive means small, poorly fitted or top-dose-only effect, or effect the other way; inactive means flat fitted curve, though single readings scatter; tested in HEK293 cells; also: % is scaled to controls: 0 for no effect and ±100 for the full control effect; nearly all actives have a fitted effect of over 50% in size; luciferase read-out
Marburg entry inh – qHTS for inhibitors of binding or entry into cells for Marburg Virus; Marburg virus pseudotyped entry inhibition, cell reporter; control for the full effect not named in the record; about a third of the inactives were read at about 46 µM; Potency, µM (top dose mostly 37.8 µM), for inactives: top-dose activity change, negative = inhibition, usual class: inhibitors; hit rate 1.8% among 300,000; active = well fitted inhibition curve with a large enough effect; inconclusive = small, poorly fitted or top-dose-only effect, or effect the other way; inactive = flat fitted curve, though single readings scatter; tested in HEK293 cells; about a fifth of its hits are not listed in these tables; also: % is scaled to controls: 0 for no effect and ±100 for the full control effect; luciferase read-out
SARS PLP yeast – qHTS of Yeast-based Assay for SARS-CoV PLP | Potency, µM (doses to about 32.9 µM), inactives show at the highest dose activity, positive = growth rescue | S. cerevisiae expressing SARS-CoV PLpro, growth rescue; control for the full effect not named in the record | hit rate 0.19% among 330,000; active means well fitted rising curve with a large enough effect; inconclusive means small, poorly fitted or top-dose-only effect; inactive means no such curve, though single readings can be large or run the other way; also: 0% is about no effect; nearly all actives have a fitted effect of over 55% in size; growth read by luminescence after 48 h
* = called active by the depositor; u = inconclusive; x = no result given; [ ] = another dose, or the depositor's remark. Unless noted, calls follow the shape of the dose curve; as a rule, active = well fitted curve in the direction sought with a large enough effect; inconclusive = small, poorly fitted or top-dose-only effect, or another doubt; inactive = no such curve, though single readings can be large; an effect the other way counts as inactive or inconclusive. Potency is read from the fitted curve at half-maximal effect. The order is random; overall some 4.7% were active at least once.

Screens in order – Cruzain inh Det	RE007 growth inh	Marburg entry inh	Lassa entry inh	Cruzain inh noDet	SARS PLP yeast	2A StopGo	NS1 function inh
COc1cccc2cc(C(=O)N(C)C)c(=O)oc12
  1.8%	4%	-2%	-1%	-4%	0%	19%	0%
CCN(CC)S(=O)(=O)c1ccc(C(=O)NCCSc2c[nH]c3ccccc23)cc1
  -4.5%	2%	-11%	26µM*	10%	-3%	-10%	-10%
Cc1ccc2oc(-c3cc(NC(=O)/C=C/c4ccco4)ccc3Cl)nc2c1
  -9.0%	x	x	u	u	x	11%	x
COc1ccc(S(=O)(=O)N2CCC(N3CCCC3)CC2)cc1
  x	-11%	x	x	x	1%	-1%	0%
O=C(Oc1ccccc1C(=S)N1CCOCC1)c1ccc([N+](=O)[O-])cc1[N+](=O)[O-]
  x	-21%	u	-11%	x	0%	-25%	4%
Cc1ccc(CNC(=O)CCNC(=O)c2ccc([N+](=O)[O-])cc2)cc1
  x	1%	9%	8%	x	3%	-17%	x
CN1CCC(N(C)C(=O)/C(C#N)=C\c2ccc(OC(F)F)cc2)CC1
  x	10%	u	3%[46.1 µM]	x	x	-14%	x
COc1cnc(-c2ccccc2)nc1Oc1cccc(C)c1C
  3.4%	18%	u	-2%	-7%	-15%	u	1%
O=C(c1ccc(-c2cccc(C(F)(F)F)c2)o1)N1CCCCCCC1
  x	-16%	-24%	-2%	x	-11%	-5%	x
CCCc1nc2ccccc2c(C(=O)OCC(=O)NCc2ccc3c(c2)OCO3)c1CC
  -4.8%	-2%	-32%	u	27%	-32%	u	2%
Cc1nnc(C)n1/N=C/c1cc(Br)ccc1O
  -2.8%	18%	-5%	7%	-1%	1%	-17%	5%
CCn1c(SC)nc2c(c1=O)SC(C)C2 (stereo not given)
  4.9%	0%	14%	2%	-2%	-1%	x	-10%
Nc1c(N(CCO)C(=O)c2ccccc2OCc2ccccc2Cl)c(=O)[nH]c(=O)n1Cc1ccccc1
  x	11%	-4%	u	x	x	-17%	x
Cc1ccc(OC(C)C(=O)Nc2ccccc2C(=O)N2CCOCC2)cc1 (stereo not given)
  x	55%	2%	1%	x	3%	-24%	5%
CCCCCCc1nnc(NC(=O)c2ccco2)s1
  x	-6%	x	x	x	-3%	66%[activator]	9%

Next part.
Screens in order – Cruzain inh Det	RE007 growth inh	Marburg entry inh	Lassa entry inh	Cruzain inh noDet	SARS PLP yeast	2A StopGo	NS1 function inh
C/C(=C\C(=O)c1ccccc1)Nc1ccc(N2CCOCC2)cc1
  0.4%	-3%	5%	12%	7%	-1%	25%	1%
O=C1CCC(=O)N1CCC(c1ccc(F)cc1)c1ccco1 (stereo not given)
  -12%	-4%	14%	7%	16%	0%	1%	2%
C(=N\Nc1nc2ccccc2[nH]1)/c1ccc2c(c1)OCO2
  x	-15%	u	u	x	0%	21%	x
COc1cccc(-n2c(O)c(C=NCc3ccc4c(c3)OCO4)c(=O)[nH]c2=O)c1
  -0.4%	-22%	-2%	-4%	1%	3%	-16%	2%
COC(=O)c1ccc(CSc2nnc(NC(=O)C3CCCO3)s2)cc1 (stereo not given)
  -1.0%	-20%	21%	u	-5%	-7%	-13%	-7%
NC(=S)NN=C1c2ccccc2-c2c(F)c(F)c(F)c(F)c21
  x	-19%	u	u	x	x	u	x
N/C(=N\OC(=O)Cc1ccc([N+](=O)[O-])cc1)c1cccc(Br)c1
  x	40%	u	0%	x	-1%	5%	3%
C/C(=N/OCO/N=C(\C)c1ccccc1)c1ccccc1
  -3.7%	8%	3.5µM*	u	-5%	-3%	-7%	2%
CCc1cccc(CC)c1NC(=O)CCS(=O)(=O)c1ccc(Br)cc1
  -0.4%	x	x	6%[46.1 µM]	-15%	x	0%	x
O=C(CCN1C(=O)/C(=C/c2ccc(Cl)cc2)SC1=S)NC1C=CS(=O)(=O)C1 (stereo not given)
  x	0%	x	x	x	1%	5%	5%
O=C(Nc1ccccc1)c1ccccc1CCc1ccccc1
  -7.2%	9%	u	10%	9%	0%	x	-1%
CCOc1ccc(CCNc2nc3ccc(C)cc3n3cnnc23)cc1OCC
  x	-17%	-5%[46.1 µM]	-11%[46.1 µM]	x	0%	-30%	10%
CCOC(=O)C1CCN(Cc2ccc(F)cc2)CC1
  1.1%	-2%	11%	-18%	-11%	-2%	-19%	2%
CC(=O)OC(C(=O)NC1CCCCC1)c1ccccc1 (stereo not given)
  1.6%	4%	5%[46.1 µM]	3%	-14%	0%	24%	-3%
Cc1onc(-c2c(F)cccc2Cl)c1C(=O)Nc1cccc(Cn2cccn2)c1
  -12%	-2%	-1%	29%[14.3 µM]	-28%	-1%	1%	-34%

New compounds follow:
Screens in order – Cruzain inh Det	RE007 growth inh	Marburg entry inh	Lassa entry inh	Cruzain inh noDet	SARS PLP yeast	2A StopGo	NS1 function inh
O=C(c1ccccc1Cl)N1c2ncnn2C2(CCCCC2)[C@@H]2CCCC[C@@H]21
  0.4%	x	-23%[46.1 µM]	7%[46.1 µM]	0%	x	-13%	x
COC(=O)C1=NNCC12CC(=O)N(c1ccc(Br)cc1)C2=O (stereo not given)
  -5.1%	13%	7%	-2%	-7%	-2%	-1%	7%
CC(C)c1ccc(NC(=O)CSc2ncccc2C(=O)Oc2cccc([N+](=O)[O-])c2)cc1
  -7.5%	-4%	u	u	16µM*	2%	17%	u
CCOc1ccccc1NC(=O)[C@@H](NC(=O)c1cccc(S(=O)(=O)N2CCOCC2)c1)C(C)C
  x	-2%	20%[46.1 µM]	7%[46.1 µM]	x	-1%	-2%	6%
Clc1nc(Nc2ccc(N3CCOCC3)cc2)c2ccccc2n1
  x	-20%	17%[46.1 µM]	-6%	x	0%	u	-2%
CCc1ccc(CN(C)C(=O)c2cc(COc3cc(C)c(Cl)c(C)c3)on2)nc1
  x	16%	x	x	x	-9%	u	-60%
O=[N+]([O-])c1cc(CN2CCN(c3ccccc3)CC2)c(O)c2ncccc12
  x	-6%	u	u	x	1%	-20%	4%
O=C(c1cnn(-c2ccccc2)c1)c1cc(Br)ccc1O
  x	25%	u	7%	x	-1%	43%[activator]	x
COc1ccc(NC(=O)c2ccc(COc3ccccc3)o2)c(OC)c1
  x	-6%	x	x	x	-11%	-6%	-19%
Cc1onc(-c2c(F)cccc2Cl)c1C(O)c1ccc(F)cc1 (stereo not given)
  x	3%	-19%	7%	x	-1%	-7%	-3%
CCOC(=O)C(NC(C)=O)C(=O)Nc1ccc(C(C)(C)C)cc1 (stereo not given)
  x	13%	18%[46.1 µM]	-19%	x	0%	3%	2%
CCN(CC(=O)Nc1ccc(NC(C)=O)cc1)C(=O)C12CC3CC(CC(Cl)(C3)C1)C2
  x	-11%	11%[46.1 µM]	-18%[46.1 µM]	x	u	-8%	-3%
CCN(CC)Cc1c(C(=O)N/N=C/c2cccc(OCc3cccc(Cl)c3)c2)nnn1-c1nonc1N
  x	-4%	x	x	x	-3%	-19%	-6%
CCOc1ccc(C(=O)NCCc2csc(-c3ccc(C(F)(F)F)cc3)n2)cc1OCC
  -3.2%	x	x	-1%[46.1 µM]	6%	x	u	x
COc1cc(-c2nnc(COC(=O)C3c4ccccc4Oc4ccccc43)o2)cc(OC)c1OC
  -1.7%	-2%	u	0%	u	-1%	u	5%

(next part)
Screens in order – Cruzain inh Det	RE007 growth inh	Marburg entry inh	Lassa entry inh	Cruzain inh noDet	SARS PLP yeast	2A StopGo	NS1 function inh
O=[N+]([O-])c1ccc(N2CCNCC2)cc1N1CCCCC1
  x	8%	u	3%	x	3%	0%	3%
CC(=O)Nc1ccc(Sc2ccccc2C(=O)N2CCCC2)cn1
  x	10%	2%[46.1 µM]	3%[46.1 µM]	x	1%	3%	x
Cc1ccc(CN(CC(=O)NC(C)(C)C)C(=O)CNC(=O)c2cccs2)cc1
  x	-2%	u	-24%[46.1 µM]	x	0%	-7%	-1%
CCOc1ccc(NC(=O)c2ccc(CN3C(=O)C(C)=C(c4ccc(C)cc4)S3(=O)=O)cc2)cc1
  -1.1%	x	x	13%[46.1 µM]	-1%	x	-24%	x
CC(C)c1nnc(NC(=O)CN2C(=O)c3ccccc3C2=O)s1
  0.3%	-1%	3%	2%	-9%	2%	x	-9%
O=C(CN1CCN(S(=O)(=O)c2ccccc2F)CC1)N1CCc2ccccc2C1
  x	0%	17%	-3%	x	-8%	-1%	x
COc1ccc(NC(=O)CSc2nnc(NC(=O)Nc3ccccc3)s2)c(OC)c1
  -0.8%	x	x	6%[46.1 µM]	-7%	x	-6%	x
CC(C)(C)NC(=O)COc1ccc(CNCc2ccccn2)cc1
  x	1%	u	28%[46.1 µM]	x	8%	-24%	0%
CCN1C(=O)C(CC(=O)N2CCN(C(c3ccccc3)c3ccccc3)CC2)N(CC)C1=O (stereo not given)
  -7.4%	-1%	-6%	u	u	1%	-8%	-20%
CCN(Cc1ccccc1)C(c1cc2cc(C)cc(C)c2[nH]c1=O)c1nnnn1CCOC (stereo not given)
  -6.3%	8%	u	-22%	u	1%	-13%	-51%
COc1ccc(N/N=C(\C#N)C(N)=O)cc1
  -7.4%	10%	0%[46.1 µM]	-24%	-8%	-78%	24%	-36%
O=C(O)COc1cccc(NC(=O)c2ccccc2)c1
  4.9%	-20%	11%	u	-2%	u	x	-2%
COc1ccc(CCNC2=CC(=O)N(c3ccc(F)cc3)C2=O)cc1
  x	0%	-18%	u	x	-1%	0%	x
Cc1ccccc1OCCn1cc(C(=O)O)c2ccccc21
  x	-4%	17%[46.1 µM]	8%[46.1 µM]	x	-1%	9%	x
O=C(O)c1cccc(S(=O)(=O)Nc2ccc(O)c(Sc3nc4ccccc4s3)c2)c1
  x	13%	20%[46.1 µM]	14%[46.1 µM]	x	2%	-10%	5%
COc1ccc(CC(=O)NCc2ccc3c(c2)CCN3C(C)=O)cc1
  4.1%	x	x	16%[46.1 µM]	1%	x	-9%	x
COc1ccc(OC)c(CC(NC(C)=O)C(=O)NC2CCN(c3nnnn3-c3ccccc3)CC2)c1 (stereo not given)
  x	6%	x	x	x	2%	-7%	0%
